Bioassay records deposited in PubChem by National Center for Advancing Translational Sciences (NCATS).
miR-21 FLuc = raises the signal of a miR-21 reporter. AID 2288. 340,000 tested, under 10 active. Potency, µM (series often up to 38.3 µM), without a hit: at the top dose reporter change, positive = more light. HeLa miR-21 FLuc reporter, luciferase, 48 h; active = well fitted rising curve with a large enough effect; inconclusive = small, poorly fitted or top-dose-only effect; inactive = no such curve, though single readings can be large or run the other way;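 also: % of control where 0% means no effect; miR-21 action dims this reporter so a rising signal means less miR-21 action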
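Luminescence from a firefly luciferase reporter carrying a miR-21 binding site downstream, stably expressed under a CMV promoter in HeLa cells that make miR-21 endogenously, reports miRNA modulation after 48 h compound exposure up to approximately 40uM final.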
Rango dissoc inh = inhibitors of RanGTP-induced Rango-importin beta complex dissociation. O95149+P62826. Biochemical FRET Rango-importin beta, RanGTP-induced dissociation. Potency, µM (titrated, usually from 46.1 µM), for inactives: at the highest dose activity change, negative = inhibition. hit rate 0.071% among 340,000. AID 540253; active means falling FRET ratio curve, often poorly fitted, with flat reads before Ran was added; inconclusive means other falling curves, or compound fluorescence or quenching; inactive means flat or rising ratio curve;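 also: potency is read from the fitted curve at half-maximal effect; % of control where 0% means no effect; nearly all actives have a fitted effect of over 45% in size; -100% = wells without RanGTP and RCC1; the record marks most hits as doubtful in a second field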
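Recombinant Rango FRET biosensor (EYFP–snurportin 1 IBB–cerulean CFP10) at 0.1 uM premixed with 0.25 uM importin beta in PBS, 1 mM DTT, 0.02% Tween-20, 0.1% BSA. Compound added 5 min; RanGTP-RCC1 (0.6 uM Ran, 2 mM GTP, 0.2 uM RCC1) then triggers release, read at 45 min.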
GLA inh pH 4.5 = alpha-galactosidase A (human) inhibition, pH 4.5; P06280; purified enzyme, 4-MU-alpha-Gal fluorescence, pH 4.5; activity change, negative = inhibition, % at 105 µM; 230,000 tested, under 10 active; AID 1467; inconclusive = small, poorly fitted or top-dose-only inhibition, or a rising curve; inactive = flat fitted curve, though single readings scatter; no compound was filed as active;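 also: 0% = full activity with enzyme and -100% = basal without enzyme; dose as in the result columns while the protocol names 77 µM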
Target sequence (P06280 whole entry, looked up): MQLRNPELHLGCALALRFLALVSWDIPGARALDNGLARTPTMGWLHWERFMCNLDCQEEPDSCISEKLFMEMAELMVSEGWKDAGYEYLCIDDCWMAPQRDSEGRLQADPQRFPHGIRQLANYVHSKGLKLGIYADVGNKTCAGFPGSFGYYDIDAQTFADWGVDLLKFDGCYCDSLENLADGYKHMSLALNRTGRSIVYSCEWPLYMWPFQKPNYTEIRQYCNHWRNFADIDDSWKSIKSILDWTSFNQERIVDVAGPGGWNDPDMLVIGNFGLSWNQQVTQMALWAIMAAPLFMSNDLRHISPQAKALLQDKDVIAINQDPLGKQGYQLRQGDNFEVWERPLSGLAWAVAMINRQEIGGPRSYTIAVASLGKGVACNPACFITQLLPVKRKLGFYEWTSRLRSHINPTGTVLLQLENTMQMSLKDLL
Rango-impB inh = prevents formation of the Rango-importin beta complex. Q14974. Rango CFP/YFP FRET sensor + importin beta, 45 min. Potency, µM (series often up to 92.2 µM), without a hit: top-dose inhibition of complex formation. hit rate 0.031% among 340,000; active = rising FRET ratio curve, often small or poorly fitted; inconclusive = mostly compound fluorescence or quenching in the first reads; inactive = flat curves in all reads;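 also: potency is read from the fitted curve at half-maximal effect; 0% = DMSO wells and 100% = buffer wells lacking importin beta; nearly all actives have a fitted effect of over 15% in size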
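FRET biosensor Rango (snurportin 1 IBB between N-terminal EYFP and C-terminal Cerulean), 50 nM in PBS/1 mM DTT/0.02% Tween-20/0.1% BSA, preincubated 5 min RT with compound; 0.125 microM importin beta added, 45 min RT, CFP/YFP FRET ratio read.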
Starred values were filed as active, the others as inactive; ? = inconclusive; / = no result given; & = joins results of further samples. Not all compounds are listed; count on the stated rates, not on these rows.

cpd	canonical_smiles	miR-21 FLuc	Rango dissoc inh	GLA inh pH 4.5	Rango-impB inh
1	COC(=O)C1C(=O)OC(C)(C)C1C(C)C(=O)c1ccc(C)cc1C (stereo unspecified)	0%	-7%	-22	-2.3%
2	CSCCC(NS(=O)(=O)c1ccc(C)cc1)C(=O)NC1CCCCCC1 (stereo unspecified)	/	-8%	/	-2.2%
3	CCOC(=O)C(C)On1c(SC(C)C(=O)OCC)nc2ccccc2c1=O (stereo unspecified)	-8%	-18%	-13	?
4	CC1CCc2sc(C(=O)NCCCn3ccnc3)cc2C1 (stereo unspecified)	0%	0%	/	2.2%
5	O=C(CSc1ncnc2ccccc12)N1CCNC1=O	/	-9%	/	3.8%
6	COc1ccccc1NC(=O)OC(C)c1ccc(Cl)cc1 (stereo unspecified)	-2%	-1%	/	2.4%
7	CCN1C(=O)c2c(C)nc3ccccc3c2C1=O	-2%	-16%	0	-1.9%
8	CC(=O)NCCC(=O)Nc1cc(S(=O)(=O)N2CCCCC2)ccc1N1CCCCC1	/	-4%	/	-0.3%
9	O=C(C[n+]1cc(-c2ccc(Cl)c(Cl)c2)n2c1CCC2)OCc1ccccc1	-3%	-24%	-4	0.0%
10	Cc1ccc(NC(=O)CSc2nc3[nH]ncc3c(=O)[nH]2)cc1Cl	/	-1%	/	-0.7%
11	O=C(C1=C[C@H](c2ccc(C(F)(F)F)cc2)C[C@H](OCc2ccc(CO)cc2)O1)N1CCN(Cc2ccccc2)CC1	14%	5%	-11	?
12	CCOC(=O)N1CCN(S(=O)(=O)c2ccc(Br)cc2)CC1	-4%	-1%	/	-0.9%
13	CCN1CCN(CCCCSc2ccccc2)CC1	-5%	/	5	/
14	O=C(CSC1=NS(=O)(=O)c2ccccc2N1)c1ccccc1	/	18%	/	-3.2%
15	COc1cccc(OC)c1C(=O)Nc1ccccc1N1CCCC1	-11%	?	-18	-0.7%
16	O=C1c2ccccc2S(=O)(=O)N1CC(O)Cn1ccc2ccccc21 (stereo unspecified)	-7%	-17%	9	0.4%
17	O=C(N=C1SC2CS(=O)(=O)CC2N1c1ccc(Cl)cc1Cl)C1CCCO1 (stereo unspecified)	2%	3%	/	0.9%
18	Cc1cc(C)c(C#N)c(N2CCN(c3ccccc3)CC2)n1	-6%	10%	/	0.1%
19	CCN1CCCC1CNCc1cc(OC)c(OC)c(OC)c1 (stereo unspecified)	0%	-4%	0	-1.4%
20	CN(C)CCNc1ccc2nnn3c4ccc(O)cc4c(=O)c1c23	/	-9%	/	-3.5%
21	N#Cc1nc(-c2ccc(OCc3ccc(Cl)cc3)cc2)oc1N1CCC(C(N)=O)CC1	0%	25%	3	3.2%
22	COc1cc(NC(=O)CN2C(=O)c3ccccc3S2(=O)=O)c(OC)cc1Cl	0%	16%	-5	0.3%
23	COc1ccccc1NC(=O)C1C2C=CC3(CN(Cc4cccnc4)C(=O)C13)O2 (stereo unspecified)	-6%	-4%	-5	-1.2%
24	COc1ccc([C@@H]2[C@@H]3C(=O)N(C(C)(C)C)C(=O)[C@@H]3[C@]3(CC(C)C)C(=O)N(c4cccc(F)c4)C(=O)N23)cc1	/	0%	/	6.7%
25	CCCCN(C(=O)C1=NN(c2ccccc2)C(=O)CC1)c1c(N)n(CC(C)C)c(=O)[nH]c1=O	/	2%	/	-0.9%
26	O=C(Cc1cccs1)Nc1cccc([N+](=O)[O-])c1	-17%	0%	-1	-1.0%
27	CCCN(C(=O)c1cc(C)ccc1C)c1c(N)n(Cc2ccccc2)c(=O)[nH]c1=O	/	3%	/	-1.4%
28	Cc1occc1-c1nnc(SCC(=O)N2CC(=O)Nc3ccccc32)n1CC(C)C	-6%	-13%	-7	1.0%
29	COc1ccc(CNC(=O)CNC(=O)c2c(C)nn(C)c2Cl)cc1	0%	-24%	4	-0.1%
30	CCCN(CCC)S(=O)(=O)c1ccc(C)cc1	1%	-17%	/	8.1%
31	O=C1C2C3C=CC(C3)C2C(=O)N1c1nc2ccccc2s1 (stereo unspecified)	-5%	1%	4	2.7%
32	COc1cccc(C(=O)Nc2ccc(NC(=O)c3ccco3)cn2)c1	-47%	-2%	5	2.3%
33	CCOC(=O)c1ccc(-c2ccc(/C=N/NC(=O)CN(c3ccccc3Br)S(C)(=O)=O)o2)cc1	-45%	6%	-2	-3.7%
34	COc1ccc(C(=O)Nn2c(CC(C)C)nc3cc(Cl)ccc3c2=O)c(OC)c1	2%	17%	/	-0.3%
35	CCn1c(Cc2ccccc2)nnc1SCC(=O)N1CCCC1=O	0%	10%	/	0.0%
36	COc1ccccc1NC(=O)COc1ccc(/C=N/NC(=O)CSCc2cc(C)cc(C)c2)cc1	-3%	9%	-1	-2.7%
37	CC(C)N(C(=O)CSc1nnnn1-c1ccc2c(c1)OCO2)C(C)C	-5%	25%	6	4.1%
38	Cn1nc(C(=O)N2CCN(c3ccc(F)cc3)CC2)c2c1-c1ccccc1S(=O)(=O)C2	2%	2%	/	0.1%
39	Cc1sc2nc(CN3CCOCC3)nc(N3CCC(C(N)=O)CC3)c2c1C	-7%	-4%	-13	-0.3%
40	O=[N+]([O-])c1ccc(/C=N\NS(=O)(=O)c2ccc(F)cc2)o1	0%	3%	/	-0.4%
41	COc1ccc2c(c1OC)C(=O)NC(C)=C(C(=O)OC(C)(C)C)C2O (stereo unspecified)	-2%	-6%	/	0.1%
42	CCCC(C)NC(=O)CSc1nnc2ccccn12 (stereo unspecified)	-3%	-10%	-4	-0.8%
43	Cc1cc(C)cc(NC(=O)Cn2nnc(C(=O)NCc3ccccc3Cl)c2N)c1	5%&-3%	4%	/	-1.9%
44	CCN1CCN(CCCNC(=O)c2cc3c(=O)[nH]c4ccccc4c3s2)CC1	0%	-13%	4	-1.6%
45	O=C(/C=C/c1ccco1)NC(=S)Nc1cccc(-c2nc3ccccc3s2)c1	/	1%	/	-4.1%
46	CN(c1ccc(OCC(=O)N2CCOCC2)cc1)S(=O)(=O)c1ccc(Cl)cc1	-2%	0%	8	?
47	CC1CCCN(C(=O)COC(=O)CNC(=O)c2sc3ccccc3c2Cl)C1 (stereo unspecified)	/	-22%	/	4.7%
48	CS(=O)(=O)c1ccc(C(=O)Nc2nc(-c3ccco3)c(-c3ccco3)s2)cc1	/	-20%	/	?
49	COc1cc(CCNc2ccc3nnc(-c4ccccc4)n3n2)cc(OC)c1OC	21%	9%	?	0.3%
50	CCOC(=O)C1(CCOc2ccccc2)CCN(C(=O)c2cncs2)CC1	-4%	0%	1	1.6%
51	O=C(O)C(CCc1ccccn1)c1ccccc1 (stereo unspecified)	/	-1%	/	-4.8%
52	Cc1ccnc(N=Cc2c(O)ccc3oc4c(c23)CCCC4)c1	9%	/	-19	/
53	N#CCCN/N=C(/Cc1nc2ccccc2[nH]1)c1ccc(Cl)cc1	-34%	/	-10	/
54	Cc1cccc(NC(=O)CC2C(=O)NCCN2C(=O)Nc2ccc(Cl)cc2)c1 (stereo unspecified)	-7%	1%	/	-0.8%
55	C/C=C/C=C\C(=O)Nc1cccc(C2=NOC3(C2)C[C@@H](C(N)=O)N(C(=O)c2cc([N+](=O)[O-])cc([N+](=O)[O-])c2C)C3)c1 (stereo partly specified)	7%	-13%	-1	-0.8%
56	COc1ccccc1-c1cc(C(=O)Nc2ccccc2SC)no1	-9%	-1%	7	-1.7%
57	O=C(CN1CCN(Cc2ccc(F)cc2Cl)C1=O)NCCc1ccc(Cl)cc1	3%&5%	-1%	-24	2.8%
58	Cc1ccccc1NC(=O)c1ccco1	-5%	22%	/	-7.5%
59	CC1CCCN(C(=O)C23CCC(C)(C(=O)C2)C3(C)C)C1 (stereo unspecified)	-1%	-11%	-4	2.8%
60	CC/C(=N\NC(=O)CSc1ncccn1)c1ccc2c(c1)OCCO2	-13%	22%	8	0.3%

6 structures out of the list, sorted by number of heavy atoms, ascending:
cpd	canonical_smiles	miR-21 FLuc	Rango dissoc inh	GLA inh pH 4.5	Rango-impB inh
52	Cc1ccnc(N=Cc2c(O)ccc3oc4c(c23)CCCC4)c1	9%	/	-19	/
35	CCn1c(Cc2ccccc2)nnc1SCC(=O)N1CCCC1=O	0%	10%	/	0.0%
50	CCOC(=O)C1(CCOc2ccccc2)CCN(C(=O)c2cncs2)CC1	-4%	0%	1	1.6%
48	CS(=O)(=O)c1ccc(C(=O)Nc2nc(-c3ccco3)c(-c3ccco3)s2)cc1	/	-20%	/	?
36	COc1ccccc1NC(=O)COc1ccc(/C=N/NC(=O)CSCc2cc(C)cc(C)c2)cc1	-3%	9%	-1	-2.7%
55	C/C=C/C=C\C(=O)Nc1cccc(C2=NOC3(C2)C[C@@H](C(N)=O)N(C(=O)c2cc([N+](=O)[O-])cc([N+](=O)[O-])c2C)C3)c1 (stereo partly specified)	7%	-13%	-1	-0.8%

Next part:
cpd	canonical_smiles	miR-21 FLuc	Rango dissoc inh	GLA inh pH 4.5	Rango-impB inh
61	Cn1c2ccccc2c2c(C(=O)NCC3CCCO3)cn(C3CCCC3)c(=O)c21 (stereo unspecified)	-2%	-3%	9	?
62	CCNC(=O)c1cccc(NC(=O)c2cc(C3CC3)nc3c2cnn3C(C)C)c1	/	-5%	/	-3.6%
63	CCOC(=O)c1c(NC(=O)CSc2nnc(C)c(=O)[nH]2)sc2c1CCCC2	-17%	-2%	-6	4.4%
64	CCc1ccc(OCCNC(=O)c2ccccc2SCc2ccccc2)cc1	14%	16%	-1	-2.9%
65	C=CCn1c(O)c(C2=c3ccccc3=NC2=O)s/c1=N/c1nccs1	-2%	?	2	-2.6%
66	CN(Cc1cccs1)C(=O)CCNS(=O)(=O)c1ccc(Br)cc1	/	-8%	/	-4.0%
67	[O-]/[N+](=C/c1ccccc1)c1ccccc1	/	-16%	/	0.4%
68	O=C(NC1CCCCC1)N1CCSC1=Nc1ccccc1	4%	2%	3	-0.5%
69	CCCn1c(=S)[nH]c2cc(C(=O)N(CCO)Cc3ccccc3)ccc2c1=O	14%	-5%	/	-3.4%
70	NS(=O)(=O)c1ccc(CCNc2ccc(C(F)(F)F)cn2)cc1	-2%	-8%	/	1.2%
71	COc1ccc(C(=O)O)cc1NCc1cccnc1	0%	-4%	/	-2.5%
72	Brc1ccsc1/C=N/Nc1ccccc1	/	0%	/	-3.4%
73	O=C(CSc1nncs1)Nc1ccc2c(c1)OCO2	-20%	-8%	1	3.2%
74	Cc1cccc(-n2c(Cc3cc(=O)[nH]c(=O)[nH]3)nnc2SCC(=O)Nc2cccc(C(F)(F)F)c2)c1	2%	2%	-1	0.8%
75	S=C(Nc1cccc(Cl)c1)NC1CC2CCCC(C1)N2C1CCCC1 (stereo unspecified)	-8%	8%	-3	-0.2%
76	COc1ccc(CCNC(=O)Cc2c(Cl)cccc2Cl)cc1	-10%	-5%	1	-0.7%
77	O=C(CSc1nc2ccccc2s1)N1c2ccccc2Sc2ccc(C(F)(F)F)cc21	8%	12%	-12	3.3%
78	COc1ccccc1CNC(=O)C1CCC(CNS(=O)(=O)c2ccccc2)CC1 (stereo unspecified)	0%	-2%	/	1.4%
79	CCOC(=O)CSC1=C(C#N)C(c2ccccc2F)C(C(C)=O)=C(C)N1 (stereo unspecified)	-7%	0%	-4	?
80	COc1ccc(N2C(=O)CC(c3ccc(OC(C)C)cc3)C2=O)cc1 (stereo unspecified)	-5%	-11%	0	-0.3%
81	Cc1nnc(SCC(=O)Nc2nsc(-c3ccc(Cl)cc3)n2)s1	-5%	20%	1	-0.8%
82	CC[N+]1(C)CCC(=C2c3ccccc3CC(=O)c3sccc32)CC1 (stereo unspecified)	-10%	6%	6	-0.2%
83	CC(CCc1ccco1)NC(=O)CSc1cc(=O)n(C)c2ccccc12 (stereo unspecified)	-12%	-27%	1	1.3%
84	CC(c1ccc(Cl)cc1)n1c(-c2ccc3ccccc3n2)n[nH]c1=S (stereo unspecified)	1%	-3%	0	0.3%
85	CCC/C(C)=N/NC(=O)c1ccccc1O	-12%	-3%	4	-0.1%
